Assay outcomes (PubChem)
Autofluor counter: compound fluorescence in toxin protease inhibitor counterscreen; compound autofluorescence counterscreen, microsphere flow cytometry; active compounds read high; fluorescence intensity (no concentration beside the values); 360,000 compounds, 3.1% hits; AID 624483;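 active means at least 3 SD above the mean of all compounds, about 16000 in these data; inconclusive means too few beads counted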;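 further: 100 nL of 1 mM stock went into each well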
RN4220 kill: S. aureus RN4220 growth inhibition; 330,000 compounds, 0.33% hits; AID 1259311; OD600, 16 h; inhibition, % (test concentration not listed);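 active means z-score of -3 or lower and OD600 up to 0.18 on both plates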;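 further: plate controls were untreated cells for no effect and reference antibiotic for full effect; stock transfer was 100 nL into about 80 µL; one replicate is shown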
Sa ugtP lethal: compounds lethal to S. aureus RN4220 ugtP deletion mutant; OD600 growth, 16 h; some inactives read as strong as hits; growth inhibition, % (concentration not given with the values); 330,000 compounds, 0.54% hits;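 active means z-score under -3 and OD600 up to 0.15 on both plates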;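 further: plate controls were untreated wells for no effect and antibiotic for full effect; wells of about 80 µL received 100 nL stock; the first replicate is given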
Mtb hypoxia rep: Mtb hypoxia fluorescent reporter inhibition; M. tuberculosis hypoxia-regulated fluorescent reporter, fluorescence; fluorescence inhibition, % (no concentration beside the values); 300,000 compounds, 0.1% hits;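 active means 35 to 45% if threefold the growth effect, above 45% if 1.5-fold the growth effect; inactive means the rest, general growth blockers included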;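 further: wells of about 50 µL received 100 nL stock; 0% = vehicle wells and 100% = reference inhibitor wells; whole bacteria with a GFP reporter of the hypoxia response; strong numbers were not always called active; many hits fall short of the cut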
PrP 5UTR inh: suppresses PrP 5' UTR mRNA reporter expression; AID 488862; cell-based PrP 5' UTR mRNA reporter, plate reader; inhibition, % (concentration not given with the values); 340,000 compounds, 0.35% hits;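 active means every replicate at 50% or more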;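 further: 0 = median of the neutral control wells; tested in H4 reporter cells; numbers are from one replicate; inactives centre near -14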
BJeLR lethal: BJeLR cell viability loss | inhibition, % (concentration not given with the values) | BJeLR (HRASV12) viability, CellTiter-Glo ATP luminescence, 48 h; reference of the scale not given here | AID 1554 | 300,000 compounds, 0.17% hits;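 active means replicate mean above 50%; inconclusive means above 50% but judged a plate artefact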;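 further: 50 nL library stock added to about 25 µL; numbers are from one replicate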
Mtb hypoxia rep growth: recorded beside Mtb hypoxia rep, whose call it bears; growth inhibition, %; measured here: M. tuberculosis growth (absorbance);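 0% = vehicle and 100% = reference antibiotic; read after six days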
* = called active by the depositor; ? = inconclusive; nt = not tested or not shown.

SMILES	Autofluor counter	RN4220 kill	Sa ugtP lethal	Mtb hypoxia rep	Mtb hypoxia rep growth	PrP 5UTR inh	BJeLR lethal
O=C(CCC(=O)c1cccs1)NNC(=O)c1cc(Cl)ccc1Cl	3642	1.8	5	3	1	-4	nt
CC(C)C1Nc2c(O)cc(Cl)c([N+](=O)[O-])c2C2C=CCC21 (stereo not given)	2026	87*	93*	21	7	-17	10
CC(C)C[C@H](NC(=O)N1CC(=O)Nc2ccccc21)C(=O)N1CCC(C(=O)O)CC1	5791	3.0	4	7	-1	-10	7
CCCC(C(=O)Nc1ccc(C)c(S(=O)(=O)N2CCOCC2)c1)c1ccccc1 (stereo not given)	5836	-1.0	2	10	6	-17	3
CC(C)CNC1=C(C(=S)Nc2ccccc2)C(=O)CC(C)(C)C1	1939	-0.2	21	7	3	-32	1
COC(=O)c1cc(OC)c(OC)cc1NC(=O)CSc1nnnn1Cc1ccccc1	3843	-3.1	-7	nt	nt	-17	4
CCc1cc(=O)oc2cc(C)cc(OCc3nn[nH]n3)c12	2732	6.9	-2	nt	nt	-34	-2
CCC1(C)N=C(c2ccc3c(c2)OCO3)CC(c2ccccc2O)N1 (stereo not given)	11110	21	-6	19	5	-70	4
Cc1cc(=O)n2nc(N3CCCC(C(=O)NCCCN4CCc5ccccc5C4)C3)sc2n1 (stereo not given)	2684	-17	-4	4	7	-21	5
CC(=O)/C=C/c1ccc(C)o1	3246	6.9	4	3	10	-8	-3
CC(=O)Nc1ccc(N=NN2CCOCC2)cc1	4567	4.1	1	4	6	-25	-6
COc1ccc(C2=NOC(CNC(=S)N3CCOCC3)C2)cc1 (stereo not given)	5342	5.3	9	9	4	-34	-1

Reprinted from the part before: 2 compounds, then new ones.
SMILES	Autofluor counter	RN4220 kill	Sa ugtP lethal	Mtb hypoxia rep	Mtb hypoxia rep growth	PrP 5UTR inh	BJeLR lethal
CC(=O)Nc1ccc(N=NN2CCOCC2)cc1	4567	4.1	1	4	6	-25	-6
COc1ccc(C2=NOC(CNC(=S)N3CCOCC3)C2)cc1 (stereo not given)	5342	5.3	9	9	4	-34	-1
CCN(Cc1ccccc1)C(=O)COC(=O)c1cc(S(=O)(=O)Nc2c(C)n(C)n(-c3ccccc3)c2=O)ccc1C	4483	4.0	-5	0	-5	-11	-4
COc1cc(NC(=O)c2onc(C)c2Cl)cc(OC)c1OC	3735	-1.2	-2	-8	5	-1	4
O=C(CN1CCCCCCC1)Nc1ccc(Cl)cc1Cl	3488	-0.7	7	11	1	-2	8
CC(C)c1ccc(CNc2ncccn2)cc1	4222	-0.9	13	6	8	-46	3
Cc1c(NC(=O)C(C)OC(=O)CCc2ccccc2)c(=O)n(-c2ccccc2)n1C (stereo not given)	4025	-0.3	0	0	7	-21	1
Cc1nc2ccc(NC(=S)N3CCN(c4ccccn4)CC3)cc2nc1C	2391	1.2	-4	5	11	-14	5
Cc1c(Cl)cccc1NC(=O)CS(=O)(=O)c1ccccc1	3408	2.9	0	3	5	-19	4
Cc1cccc(NC(=O)C(C)SCc2nc3sc4c(c3c(=O)[nH]2)CCCC4)n1 (stereo not given)	6305	1.6	-2	1	9	-27	2
O=C(Nc1ccc(Oc2ncccn2)cc1)c1ccco1	4252	2.2	1	-69	-9	-26	0
CCCCOC(=O)c1ccc(NC(=O)c2ccoc2C)cc1	20473*	-2.8	-3	3	14	-55	5
Nc1c(N(CCC2=CCCCC2)C(=O)CCCOc2ccccc2)c(=O)[nH]c(=O)n1Cc1ccccc1	?	10	0	9	7	-18	-3
COc1ccccc1NC(=O)N1c2ccc(F)cc2CCC1C (stereo not given)	9605	5.6	-3	8	6	-23	-7
Cc1ccccc1OCCC(=O)Nc1ccc(N2CCOCC2)cc1N1CCOCC1	5603	6.4	-2	13	1	-7	2
CCC(=O)Nc1nc2ccc3sc(C)nc3c2s1	4254	2.8	-1	0	11	-16	10
CCOc1cc(NC(=S)NCC2CCCO2)c(OCC)cc1NC(=O)C1CC1 (stereo not given)	4340	8.6	3	-3	-14	-10	2
Cn1c(N)c(C(=O)COC(=O)c2cnc(Cl)c(Cl)c2)c(=O)n(C)c1=O	3781	3.4	2	-7	6	-7	3
CCCCn1c(N)c(N(CCOC)C(=O)CC(NC(=O)c2ccccc2Cl)c2ccccc2)c(=O)[nH]c1=O (stereo not given)	3070	-3.7	3	3	-2	-23	nt
CCOc1ccc(CN2CCN(Cc3cn(CC)nc3C)CC2CCO)cc1 (stereo not given)	2333	-0.5	1	14	4	-31	-1
C#CCOCCOCCOCCNc1nc(N2CCN(C(=O)C(CCC(=O)O)n3cc(C(N)CC(C)C)nn3)CC2)nc(N2CCN(C(=O)C(CCC(=O)O)n3cc(C(N)C(C)CC)nn3)CC2)n1 (stereo not given)	nt	6.4	1	1	-1	nt	nt
O=C1SCCC1NS(=O)(=O)c1ccccc1[N+](=O)[O-] (stereo not given)	3416	6.6	1	6	6	-26	-3
O=C1C(Cl)=C(N2CCCCC2)C(=O)N1c1ccccc1Cl	10158	0.0	-2	-7	5	12	0
COCCN(C(=O)c1snc(C(N)=O)c1N)C(C(=O)NC1CCCCC1)c1ccc(OC)c(OC)c1 (stereo not given)	3731	4.1	8	15	5	-4	-8
Cc1cc(N2C(=O)C(O)=C(C(=O)c3ccco3)C2c2ccc(O)cc2)no1 (stereo not given)	3130	-20	-8	26	-22	-22	9
O=C1NC(Cc2c[nH]c3ccccc23)C(=O)N1Cc1ccccc1 (stereo not given)	5664	2.0	3	1	9	-46	6
COCCN1C(=O)Cc2c1nc(N)c1c(N)nc(N3CCN(c4ccc(F)cc4)CC3)c(C#N)c21	5074	3.7	9	-9	1	-22	-1
CCc1ccc2[nH]c(=O)c(CN(CCCN3CCOCC3)C(=O)Nc3cccc(Cl)c3)cc2c1	2997	-15	-11	17	14	-7	5
O=C(Nc1ccc2nc(-c3ccccc3)oc2c1)c1ccco1	4625	0.2	13	nt	nt	-59	-8
O=C(COC(=O)c1cc(S(=O)(=O)N2CCOCC2)ccc1Cl)NC1CC1	3975	2.5	3	16	10	-24	nt
COc1ccc(C)cc1S(=O)(=O)n1ccnc1C	3662	3.4	-6	-1	17	-24	2
Cc1ccc2cc(CN(C)C(=O)C3CCCO3)c(=O)[nH]c2c1 (stereo not given)	2497	4.0	6	nt	nt	-18	3
O=C(c1ccc(CNS(=O)(=O)c2ccccc2)cc1)N1CCN(c2ccccn2)CC1	4025	11	-1	nt	nt	-16	nt
CC(C)(C)C(=O)CSc1ccc(S(=O)(=O)N2CCN(Cc3ccccc3)CC2)cn1	8790	3.6	3	4	0	-5	nt
Cc1ccc(NN=Nc2nc3c([nH]2)c(=O)n(C)c(=O)n3C)cc1	2555	nt	nt	nt	nt	-26	2
Cn1c(C23CC4CC(CC(C4)C2)C3)n[nH]c1=S	7090	5.7	2	0	1	-18	-3
Cc1ccccc1S(=O)(=O)Cc1ccc(C(=O)NC2CCCCCC2)o1	4245	3.8	3	6	-3	-6	16
CCN(C(=O)COC(=O)C1COc2ccccc2O1)c1c(N)n(Cc2ccccc2)c(=O)[nH]c1=O (stereo not given)	3272	-4.3	4	12	15	-6	nt
O=C(NNC(=S)NCc1ccccc1)c1ccc(Br)cc1	6109	2.9	1	-6	8	-17	-7
COC(=O)CC1C(=O)NCCN1C(=O)c1sc2ccccc2c1Cl (stereo not given)	6193	-1.4	1	3	5	-17	2
O=C(O)c1ccc(Cl)c(NC(=S)NC(=O)c2cccc(COc3ccccc3)c2)c1	6335	nt	nt	nt	nt	-16	2
Cc1ccc(S(=O)(=O)N2CCN(C3CCN(Cc4ccccc4)CC3)CC2)cc1	9805	-1.3	-6	-9	-5	-8	nt
COC(=O)N(NC(=O)C(O)(c1ccccc1)c1ccccc1)c1ccccc1	2312	4.0	-9	-11	-2	-26	-6
CCn1c(-c2csc(-c3ccccc3)n2)n[nH]c1=S	2333	14	6	18	13	-21	-4
Fc1ccc(COc2ccc(Cl)cc2C=NNc2nc(N3CCCC3)nc(N3CCCC3)n2)cc1	nt	0.8	-8	4	13	nt	nt
COc1ccc(C(=O)OCC(=O)NC(=O)NC(C)C)cc1OC	3295	3.4	0	6	7	-2	5
COc1cccc(-c2ncc3ccccc3c2COC(=O)c2ccc(F)cc2)c1	2912	0.3	10	5	4	-21	nt
O=C(CN1CCCc2ccccc21)NCCc1ccc(Cl)cc1	4860	5.6	2	-2	9	-21	-1
CSc1ccc(/C=C2\CCn3c2nc2cc(C(=O)O)ccc2c3=O)cc1	3297	7.0	11	17	6	-26	-3
COC(=O)N/N=C/c1c(C)nn(-c2cccc(Cl)c2)c1Cl	?	nt	nt	nt	nt	-11	-6

For convenience, three of the compounds above.
SMILES	Autofluor counter	RN4220 kill	Sa ugtP lethal	Mtb hypoxia rep	Mtb hypoxia rep growth	PrP 5UTR inh	BJeLR lethal
O=C(NNC(=S)NCc1ccccc1)c1ccc(Br)cc1	6109	2.9	1	-6	8	-17	-7
COC(=O)CC1C(=O)NCCN1C(=O)c1sc2ccccc2c1Cl (stereo not given)	6193	-1.4	1	3	5	-17	2
O=C(O)c1ccc(Cl)c(NC(=S)NC(=O)c2cccc(COc3ccccc3)c2)c1	6335	nt	nt	nt	nt	-16	2

(further entries)
SMILES	Autofluor counter	RN4220 kill	Sa ugtP lethal	Mtb hypoxia rep	Mtb hypoxia rep growth	PrP 5UTR inh	BJeLR lethal
O=C1CCCN2N=C(SCC(=O)Nc3ccc(OC(F)(F)F)cc3)SC2=N1	4841	-1.6	0	13	-5	14	3
Cc1ccc(Cl)cc1N1CCN(C(=O)c2ccc(NS(=O)(=O)c3c(C)noc3C)cc2)CC1	3226	-5.0	-28	7	7	-9	6
CSCc1ccc(C(=O)NC(C)c2ccc(-n3ccnc3)cc2)cc1 (stereo not given)	5681	-5.1	7	1	-7	-11	5
Cc1ccccc1NC1=NCC(c2ccc([N+](=O)[O-])cc2)S1 (stereo not given)	4479	1.3	4	3	5	-32	13
Cc1ccc(C(=O)Nc2ccc([N+](=O)[O-])cn2)o1	2545	2.4	-5	2	4	-69	2
COc1cc(OC)c(/C=C2\SC(=O)N(CC(=O)Nc3ccccc3F)C2=O)c(OC)c1	4238	3.8	0	14	16	-11	3
Cc1cc2cc(CNS(=O)(=O)N(C)C)ccc2[nH]1	4807	-6.8	-5	5	1	-12	9
CCOC(=O)c1c(NC(=O)Nc2ccc(C)cc2)sc2c1CCN(C)C2	4528	-0.7	12	-3	-5	-20	-1
COc1ccccc1OCC(=O)NN=C1SCC(=O)N1Cc1ccccc1	nt	5.1	-4	8	1	nt	nt
O=C(CN(C(=O)c1csnn1)c1cccc(Cl)c1)NC1CCCC1	3625	1.3	1	-3	1	-3	0
COc1ccc(NC(=O)C2CCN(S(C)(=O)=O)CC2)cc1Cl	12070	3.1	6	12	10	-21	-4
COc1ccc2nc(N3C(=O)CC(Cc4ccc(C)cc4)C3=O)sc2c1 (stereo not given)	2428	0.2	25	11	6	1	3
COc1ccc(NC(=O)CC2SC(N3CCCC3)=NC2=O)cc1Cl (stereo not given)	3386	3.1	-1	8	-1	-5	nt
Cc1ccc(N=Cc2sc(O)c3ccccc23)cc1	4088	-1.8	-20	-102	-38	-88	-5
O=C(CN1C(=O)c2ccccc2C1=O)N1CCN(C2c3ccccc3-c3ccccc32)CC1	2768	7.8	-11	5	2	-28	0
OCC[C@@H]1C[C@H](O)[C@@H](O)[C@@]2(Cc3ccccc3CCO2)O1	4097	nt	nt	nt	nt	-19	8
COc1ccc(S(=O)(=O)N2CCN(CC(O)COc3ccc(CC#N)cc3)CC2)cc1OC (stereo not given)	3102	4.7	5	0	-5	-13	-3
O=C(Nc1ccccc1)N1CCN(Cc2ccc(Cl)cc2)CC1	2672	-0.6	10	6	3	-30	14
Cc1cn(C2CCCCC2)c(=O)[nH]c1=O	2835	0.7	-4	3	5	6	nt
CCOc1ccc(C(=O)Oc2ccc(NC(C)=O)cc2)cc1	nt	6.6	4	-7	-4	nt	7
O=C(CSc1nnc(-c2ccncc2)n1-c1ccccc1)N1CCN(c2ccc(Cl)cc2)CC1	10269	15	-10	8	-1	-20	-1
CCOc1ccc(NC(=O)CSc2nc3ccccc3c(=O)n2CCNC(C)=O)cc1	20012*	4.7	1	-2	2	-21	-13
O=C(Nc1ccccc1C(=O)N1CCOCC1)C1CCCO1 (stereo not given)	19285*	5.2	2	10	4	-16	-9

No enrichment for hits (roughly 4.1% active in at least one column).
